TRPML1 ag – human mucolipin-1 channel agonism; Q9GZU1; TRPML1-expressing cells, Ca2+ dye fluorescence, FDSS; host cell line not named in the record; reference of the full effect not given here; activation, % (concentration not given with the values); actives 0.12% (n = 410,000); in the data active = activation above about 50%; inconclusive = about 30% to 50%; inactive = below about 30%; note: 0% is about no effect; the text of the record puts the active cut at 80%
Target sequence (Q9GZU1 whole entry, looked up): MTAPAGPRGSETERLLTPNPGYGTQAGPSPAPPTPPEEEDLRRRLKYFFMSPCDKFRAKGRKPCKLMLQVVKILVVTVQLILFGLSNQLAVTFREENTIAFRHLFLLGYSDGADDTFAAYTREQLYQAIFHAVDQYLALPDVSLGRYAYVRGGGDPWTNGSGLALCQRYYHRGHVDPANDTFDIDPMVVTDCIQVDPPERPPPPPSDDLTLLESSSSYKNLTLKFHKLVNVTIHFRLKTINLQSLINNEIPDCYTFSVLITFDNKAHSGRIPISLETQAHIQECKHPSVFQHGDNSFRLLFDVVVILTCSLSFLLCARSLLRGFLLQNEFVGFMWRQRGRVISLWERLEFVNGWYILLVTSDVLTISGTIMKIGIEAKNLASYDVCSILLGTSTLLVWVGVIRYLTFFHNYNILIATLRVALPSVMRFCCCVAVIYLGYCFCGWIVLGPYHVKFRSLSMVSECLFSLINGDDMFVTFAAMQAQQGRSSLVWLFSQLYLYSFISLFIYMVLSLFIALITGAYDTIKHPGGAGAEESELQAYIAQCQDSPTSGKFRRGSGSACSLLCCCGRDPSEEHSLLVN
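Agonist activity was taken from a 110 s kinetic Ca2+ dye read on the FDSS after pinning compounds onto TRPML1-DL cells. The cells were seeded at 1,500/well with Tet inducer, incubated about 16 h, then dye-loaded at room temperature.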
Menin MLL FP FL – inhibitors of human menin-MLL interaction, wild-type MLL peptide. 290,000 tested, under 10 active. FP activity change, % at 61.4 µM. Fluorescence polarization, fluorescein-MLL peptide displacement from menin; inconclusive = falling polarisation curve, or a change in total fluorescence; inactive = total fluorescence flat and polarisation flat or rising; no compound was filed as active; the % refers to the polarisation; negative = inhibition;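 note: % of control where 0% means no effect; inhibitors lower the polarisation; unlabelled MLL peptide was the positive control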
gsp antagonist – gsp mutant antagonism. gsp-mutant cells, cAMP HTRF, 30 min; control for the full effect not named in the record. Potency, µM (top dose mostly 76.9 µM), for the others: top-dose activity change, negative = inhibition, actives largely listed as inhibitors. actives 0.4% (n = 340,000). AID 624288; active = falling curve of any shape with a large fitted effect; inconclusive = falling curve, mostly with a smaller effect; inactive = flat or rising curve; cell line not stated here;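 note: intracellular cAMP measured with PDE inhibitor Ro 20-1724 present during compound exposure; potency is the fitted concentration of half-maximal effect; % is set by controls: 0 for no effect and ±100 for the full control effect; nearly all actives have a fitted effect of over 65% in size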
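Cells in G418 medium, seeded 16-24 h, 37C; buffer exchange to DPBS + 1 mM CaCl2, 0.5 mM MgCl2, 0.05% BSA; cpds in DMSO + […] (300 uM stock), 30 min 37C; HTRF cAMP detection.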
ClpP mod – qHTS Assay for Activators of ClpP; ATP-dependent Clp protease proteolytic subunit (Bacillus subtilis (strain 168)), P80244; purified B. subtilis ClpP, FRET peptide cleavage, 20 min; Potency, µM (top dose mostly 57.5 µM), without a hit: at the highest dose activity change, negative = active; actives 1.9% (n = 340,000); active = well fitted falling curve with a large enough effect; inconclusive = small, poorly fitted or top-dose-only effect; inactive = no such curve, though single readings can be large or run the other way; note: potency is the fitted concentration of half-maximal effect; the source files actives as falling curves though it sought activators and does not explain the sign; nearly all actives have a fitted effect of over 65% in size; many hits overshoot -100%
Target sequence (P80244 whole entry, looked up): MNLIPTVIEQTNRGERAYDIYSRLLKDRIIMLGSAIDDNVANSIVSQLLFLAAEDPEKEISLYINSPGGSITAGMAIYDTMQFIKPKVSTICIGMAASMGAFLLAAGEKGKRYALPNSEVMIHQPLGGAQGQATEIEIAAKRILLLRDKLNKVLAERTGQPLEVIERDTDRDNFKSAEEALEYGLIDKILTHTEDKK
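ClpP 10 microg/mL final, pH 8 Tris/KCl buffer with BSA, glycerol, Tween-20; compound pinned in; FRET-FV substrate; RT 20 min; Ex320/Em430; ΔFRET vs ADEP 5.8 microM, DMSO, no enzyme.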
TRPML1 inh – blocks the human TRPML1 channel | Q9GZU1 | TRPML1-inducible cells, Ca2+ dye fluorescence, FDSS; stronger effect = lower value; inhibition of EC80 agonist-evoked calcium signal | activity change, negative = inhibition, % (concentration not given with the values) | actives 0.02% (n = 390,000); in the data active means activity change below about -50%; inconclusive means about -30% to -50%; inactive means above about -30%;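 note: stimulus is agonist 54-4 at its EC80 concentration; % is set by controls: 0 for no effect and ±100 for the full control effect; compound concentration not given in the record; the text of the record puts the active cut at -80%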
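Tet-induced TRPML1-DL cells loaded with Ca8 no-wash calcium dye were read kinetically on FDSS. Compound addition was followed by EC80 agonist 54-4 (4 uM final); inhibition was read over 110 s.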
gsp ag – agonists of gsp mutant (McCune-Albright syndrome) | actives 0.13% (n = 340,000) | AID 624287 | Potency, µM (series often up to 76.9 µM), for the others: top-dose activation (cAMP increase), actives largely listed as activators | gsp mutant cells, cAMP HTRF, 30 min; control for the full effect not named in the record; active = well fitted activation curve with a large enough effect; inconclusive = small, poorly fitted or top-dose-only effect, or another doubt; inactive = no such curve, though single readings can be large or run the other way; cell line not stated here;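 note: phosphodiesterase inhibitor Ro 20-1724 added with compounds to block cAMP breakdown; potency is the fitted concentration of half-maximal effect; nearly all actives have a fitted effect of over 60% in size; about a fifth of the inactives were tested at one dose only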
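Cells stably selected in G418 were plated at 2000/well, grown 16-24 hr, then given compounds in DMSO with the PDE inhibitor […] (300 uM solution added) for 30 min at 37C; cAMP was read by HTRF.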
The depositor's hits bear a star; ? = inconclusive; / = no result given; & = joins results of further samples; [ ] = another dose, or the depositor's remark.

SMILES	TRPML1 ag	Menin MLL FP FL	gsp antagonist	ClpP mod	TRPML1 inh	gsp ag
CCN(CC)CCN1C(=O)C2C(C(=O)Nc3cc(C)cc(C)c3)C3C=CC2(O3)C1C(=O)NC1CCCCC1 (centres undefined)	1.0	-5.4	10%	/	12	2%[15.4 µM]
CCC(C)NS(=O)(=O)c1ccc(OCC(=O)Nc2ccc3c(c2)OCCO3)cc1 (centres undefined)	-0.4	7.5	-4%	0.9%	-5	-21%
Cc1[nH]nc2oc(=O)c(CCO)c(C)c12	0.8	-3.8	1%	?	-3	4%
CCOC(CNC(=O)C(=O)Nc1cc2c3c(c1)CCN3C(=O)CC2)OCC	-1.0	-0.9	11%	-1.3%	-13	10%
COc1cc(NC(=O)c2cc(-c3ccc(Cl)c(Cl)c3)on2)cc(OC)c1OC	-1.2	/	/	1.6%	-19	/
Cc1onc(-c2ccccc2)c1C(=O)NNC(=O)c1ccccc1O	1.2	/	8%	/	-5	-6%[15.4 µM]
Cc1c(Br)c([N+](=O)[O-])nn1CC(=O)N1CCN(Cc2ccccc2)CC1	0.4	0.3	-5%	/	-12	13%[15.4 µM]
CC1(Cc2ccc(C(F)(F)F)nc2)C(=O)Nc2cc(-c3ccccc3Cl)ccc21 (centres undefined)	0.7	/	/	-3.2%	25	/
Cc1cc(C)cc(OCC(=O)OCC(=O)N2CCc3ccccc32)c1	-0.7	/	3%	1.0%	-7	?
CCOc1ccc(NC(=O)Nc2nnc(N3CCCCC3C)s2)cc1 (centres undefined)	-0.2	/	/	0.5%	13	/
O=C(CSc1nnc(COc2ccccc2)o1)N1CCN(c2ccccc2)CC1	0.4&1.2	1.1	-11%	-1.0%	-1&3	-21%
CC(C)Cn1c(-c2ccco2)csc1=Nc1cccnc1	-0.1	7.8	-3%	-1.1%	-8	-46%[inhibitor]
O=C(O)c1ccccc1-c1nnc2c(Cl)cc(C(F)(F)F)cn12	0.8	0.0	16%	-20%	-18	?
CN(Cc1ccco1)C(=O)c1cc2c(s1)-c1ccc(Cl)cc1S(=O)(=O)C2	1.9	-0.5	-5%	-10%	-7	-8%
Cc1csc(NC(=O)Cc2ccc(F)cc2)n1	-0.6	-2.9	3%	0.7%	-10	-1%[15.4 µM]
N=c1c(S(=O)(=O)c2ccc(Br)cc2)cc2c(=O)n3ccccc3nc2n1C1CCCCC1	-0.1	/	22%	-4.4%	6	?
COc1ccc(C(C)(C)C)cc1NC(=O)C1C2C=CC(C2)C1C(=O)O (centres undefined)	0.0	3.1	2%	-1.3%	4	-2%
COc1cccc(C(=O)CN(C(=O)c2ccc(Cl)c(Cl)c2)N2C(=O)c3ccccc3C2=O)c1	3.6	4.0	-14%	2.5%	0	?
COc1ccc2c(c1)NC(c1cc(Cl)cc(Cl)c1O)c1cccn1-2 (centres undefined)	-0.8	7.6	-3%	/	2	17%
CCNS(=O)(=O)c1ccc(CCC(=O)N2CCN(c3cccc(Cl)c3)CC2)cc1	2.9	-1.5	?	11%	1	7%[15.4 µM]
CCc1ccc(NC(=O)NCCN2CCCCC2)cc1	0.6	5.1	-9%	-2.2%	7	-7%
O=C(COc1ccccc1F)Nc1nnc(-c2ccncc2)s1	1.6	2.0	-12%	-39%	5	11%
O=C(Oc1ccnc2cc(Cl)ccc12)N1CCOCC1	-0.4	3.3	5%	2.1%	-1	25%
Cc1ccc(NC(=O)C2Oc3ccccc3OC2C)cc1 (centres undefined)	/	-6.6	-2%	0.8%	/	1%
O=S(=O)(NC(=NCCc1ccc(Cl)cc1)c1ccccc1Cl)c1cccs1	4.5	0.5	/	/	30	-2%[15.4 µM]
CCc1ccc(OCC(=O)Nc2ccc(S(=O)(=O)Nc3onc(C)c3C)cc2)cc1	2.6	/	/	0.2%	11	/
CC1NC(=O)c2cccnc2-n2c1nc1cc(F)c(F)cc1c2=O (centres undefined)	0.7	/	/	-0.9%	4	?
N#Cc1ccc(Cl)cc1NC(=O)COC(=O)c1ccc2c(c1)OCCO2	-0.8	3.5	14%	?	3	2%
CC(Sc1nc2nn(-c3ccccc3)c(=O)c-2c2n1CCCCC2)C(N)=O (centres undefined)	-0.6	-0.5	-1%	0.5%	-6	1%
COc1cc(C(=O)NNC(=S)NC(=O)/C=C/c2ccccc2)cc(OC)c1OC	0.0	3.8	-8%	/	-5	5%[15.4 µM]
CC1CC(C)(C)NC(=S)N1CC(=O)N1CCN(Cc2ccccc2)CC1 (centres undefined)	0.1	-1.4	9%	0.9%	-4	9%[15.4 µM]
COc1ccccc1CNC(=O)CCCn1c(=O)c2ccccc2n(CC(=O)Nc2c(C)cc(C)cc2C)c1=O	-0.2	/	/	?	-9	/
COc1ccc(C(=O)NNC(=S)Nc2ccccc2)cc1	0.6	4.7	6%	-2.4%	-9	-2%[15.4 µM]
O=C(NCCC1=CCCCC1)C1CCN(S(=O)(=O)c2cnc[nH]2)CC1	1.2	-1.1	20%	-2.4%	0	-13%
O=C(OCC(=O)N1CCCc2ccccc21)c1ccc(Cl)nc1	0.0	7.5	10%	-2.0%	14	-30%[inhibitor]
CC1=C(C(=O)N(C)C)CC(CC(=O)NCCc2ccccn2)C(=O)N1Cc1ccc(F)cc1 (centres undefined)	0.1	/	/	-2.9%	-3	-36%[inhibitor]
Cn1c(=O)c2nc(SCC(=O)Nc3cc(Cl)ccc3Cl)n(C)c2n(C)c1=O	1.7	/	/	-2.2%	-9	/
Cc1ccc(/C=N/N2CCN(c3ccccn3)CC2)cc1	-1.4	-0.3	-23%	-0.2%	3	8%[15.4 µM]
C=CC[N+]1(CC=C)CCOCC1	0.9	2.7	17%	0.5%	6	-46%[inhibitor]
CCOC(=O)c1c(S(=O)(=O)N2CCCC(C(=O)Nc3cccc(C#N)c3)C2)c(C)n(C)c1C (centres undefined)	-1.1	/	/	-1.0%	-15	/
Cn1c(N)c(C(=O)COC(=O)C2CCCC2)c(=O)n(C)c1=O	-0.3	-0.6	4%	/	10	15%[15.4 µM]
COc1ccc(OC)c(C(=O)c2coc3ccc(OC(C)=O)cc23)c1	2.1	1.9	2%	/	-1	-28%
COC(=O)c1cc(OC)c(OC)cc1NC(=O)CCc1ccc(C)o1	5.8	2.5	9%	-11%	10	-58%[inhibitor]
Cc1c(C(=O)OCC2CCCO2)[nH]c2c1C(=O)CC(c1ccc(N(C)C)cc1)C2 (centres undefined)	1.5	0.1	40µM*	-0.9%	2	-26%
CCn1nc(C)c(/C=N/NC(=O)Cn2nnc(N)n2)c1C	1.1	0.5	11%	-0.6%	7	3%
COc1cc(Cl)c(C)cc1NC(=O)[C@@H]1CCCN1C(=O)c1cccs1	2.9	1.1	-6%	-3.0%	-11	-49%[inhibitor]
NS(=O)(=O)c1cccc(NC(=O)CSc2nnc3n2CCCCC3)c1	-0.8	/	7%	0.5%	3	-12%
Cc1cc(/C(N)=N/OC(=O)c2cccc(Cl)c2)no1	-0.9	3.2	2%	0.0%	-2	-12%[15.4 µM]
CCCCc1nc(SCCN2CCOCC2)c2c(=O)n(C)c(=O)n(C)c2n1	0.2	0.0	-11%	-0.1%	-14	3%[15.4 µM]
CCOc1ccc(NS(=O)(=O)c2ccc(C(=O)NCC(c3ccc(OC)cc3)N3CCCC3)cc2)cc1 (centres undefined)	4.0	/	13%	-3.7%	-1	-33%[inhibitor]
CC(=O)Nc1ccc2c(c1)N(C(=O)CN(C)C)c1ccccc1CC2	0.8	1.9	3%	-9.0%	8	0%
CCCNC(=O)COC(=O)c1ccc(Cl)c(S(=O)(=O)N2CCCC2)c1	0.2	-2.0	-11%	3.4%	-7	14%
O=C(C1CCCCC1)N(Cc1cccnc1)c1nc2c(F)cc(F)cc2s1	1.3	/	/	-0.5%	21	/
O=C(CN1C(=O)S/C(=C\c2ccc(Cl)cc2)C1=O)NNC(=O)c1ccccc1O	0.1	6.0	1%	-4.2%	1	-44%[inhibitor]
CC1CCCCC12NC(=O)N(CC(=O)Nc1ccc3c(c1)OCO3)C2=O (centres undefined)	-0.4	/	/	-0.5%	6	-56%[inhibitor]
C/C(CC(=O)Nc1cccnc1)=N/NC(=O)COc1ccc(Cl)cc1Br	-0.8	0.5	3%	/	-10	?
O=C(NCCCn1cccn1)C1CCC(=O)N(CCc2ccccc2)C1 (centres undefined)	-0.2	/	8%	1.8%	34	?
Cc1ccc(-c2c(C(=O)Nc3ccccc3C)c(C)[nH]c(=S)c2C#N)o1	-0.9	?	18%	/	0	13%[15.4 µM]
CCc1ccccc1NC(=O)N1CCCn2nc(C)cc21	1.4	/	/	0.7%	12	/
COc1ccc(C(CC(=O)N2CCCC(C)C2)c2c(OC)cc(OC)c3c(-c4ccccc4)cc(=O)oc23)cc1 (centres undefined)	0.8	4.1	-8%	?	26	3%

Random excerpt: 2 records from the list
SMILES	TRPML1 ag	Menin MLL FP FL	gsp antagonist	ClpP mod	TRPML1 inh	gsp ag
COc1cc(Cl)c(C)cc1NC(=O)[C@@H]1CCCN1C(=O)c1cccs1	2.9	1.1	-6%	-3.0%	-11	-49%[inhibitor]
CCCNC(=O)COC(=O)c1ccc(Cl)c(S(=O)(=O)N2CCCC2)c1	0.2	-2.0	-11%	3.4%	-7	14%

(listing goes on)
SMILES	TRPML1 ag	Menin MLL FP FL	gsp antagonist	ClpP mod	TRPML1 inh	gsp ag
Cc1ccc(C)c(C(=O)N2CCC(n3nccc3NC(=O)C3CC3)CC2)c1	-0.5	/	15%	-18%	-3	16%[15.4 µM]
COc1c(Cl)cc(Cl)cc1C(=O)Nc1ccc(C(=O)O)cc1	0.2	0.4	-2%	-2.7%	2	2%
COc1cc2c(cc1OC)C(c1ccccc1)=NCC2	-0.4	1.1&-6.2	-5%	0.6%	7	21%[15.4 µM]
COc1ccccc1CC(=O)c1ccc(OCc2ccccc2)cc1	1.8	/	1%	-4.0%	-14	-18%
Cc1nc(N)sc1N=Nc1ccccc1C(F)(F)F	2.2	4.1	-1%	/	-17	?
CCOC(=O)C(=O)/C(=C\N(C)C)c1onc(-c2ccccc2Cl)c1C(=O)OC	0.9	3.0	3%	5.1%	2	25%
Oc1ccc(Nc2nc(NCC3CCCO3)c3ccccc3n2)cc1 (centres undefined)	0.6	0.5	2%	-2.8%	-8	1%
O=C(COC(=O)/C=C/c1cccc(F)c1)NC(=O)NCc1ccccc1	1.1	/	-5%	0.5%	7	1%
CC(=O)C1=C(c2ccccc2)NC(=S)NC1c1ccc(O)c(O)c1 (centres undefined)	-0.7	-2.5	5%	-8.3%	-9	-3%[15.4 µM]
CCOc1ccc(OCC)c(NC(=O)CSc2nc3c(c(=O)n(C)c(=O)n3C)n2C(C)C)c1	0.7	-0.1	9%	1.8%	6	-34%
CCOc1nc(SCCOc2ccc(C)cc2)nc(N(C)C)n1	1.3	-0.4	-27%	3.1%	-5	-1%
COc1ccc(CCNC(=O)c2cc(C)oc2C)cc1OC	-0.7	-1.6	6%	/	6	0%[15.4 µM]
CN1CCN(c2nnc(-c3cccs3)c3ccccc23)CC1	-0.7	1.0	1%	-0.3%	1	-9%[15.4 µM]

Source: PubChem BioAssay
